From PubChem
Bead autofluor = flagged as autofluorescent in microsphere protease counterscreen; compound autofluorescence counterscreen, microsphere flow cytometry; hits give high values; 360,000 tested, 3.1% active; fluorescence intensity (no concentration beside the values);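 active = at least 3 SD above the mean of all compounds, about 16000 in these data; inconclusive = too few beads counted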;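 note: 100 nL of 1 mM stock went into each well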
Sa RN4220 lethal = S. aureus RN4220 growth inhibition; OD600, 16 h; inhibition, % (concentration not given with the values); 330,000 tested, 0.33% active; AID 1259311;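 active = z-score of -3 or lower and OD600 up to 0.18 on both plates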;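 note: plate controls were untreated cells for no effect and reference antibiotic for full effect; stock transfer was 100 nL into about 80 µL; one replicate is shown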
ugtP null kill = kills S. aureus RN4220 lacking UgtP; S. aureus RN4220 ugtP deletion, OD600 growth, 16 h; some inactives read as strong as hits; growth inhibition, % (concentration not given with the values); 330,000 tested, 0.54% active;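 active = z-score under -3 and OD600 up to 0.15 on both plates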;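 note: plate controls were untreated wells for no effect and antibiotic for full effect; wells of about 80 µL received 100 nL stock; the first replicate is given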
PrP 5UTR inh = inhibition of PrP 5' UTR reporter expression; cell-based PrP 5' UTR mRNA reporter, plate reader; inhibition, % (test concentration not listed); 340,000 tested, 0.35% active;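 active = every replicate at 50% or more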;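 note: 0 = median of the neutral control wells; tested in H4 reporter cells; numbers are from one replicate; inactives centre near -14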
Mtb hypoxia inh = Mtb hypoxia fluorescent reporter inhibition | fluorescence inhibition, % (no concentration beside the values) | AID 1159583 | M. tuberculosis hypoxia-regulated fluorescent reporter, fluorescence | 300,000 tested, 0.1% active;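 active = 35 to 45% if threefold the growth effect, above 45% if 1.5-fold the growth effect; inactive = the rest, general growth blockers included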;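 note: wells of about 50 µL received 100 nL stock; 0% = vehicle wells and 100% = reference inhibitor wells; whole bacteria with a GFP reporter of the hypoxia response; strong numbers were not always called active; many hits fall short of the cut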
BJeLR lethal = kills HRASV12-expressing BJeLR cells | inhibition, % (concentration not given with the values) | BJeLR (HRASV12) viability, CellTiter-Glo ATP luminescence, 48 h; reference of the scale not given here | 300,000 tested, 0.17% active | AID 1554;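 active = replicate mean above 50%; inconclusive = above 50% but judged a plate artefact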;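 note: 50 nL library stock added to about 25 µL; numbers are from one replicate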
Mtb hypoxia inh growth = further read-out of Mtb hypoxia inh, marked with its call; growth inhibition, %; measured here: M. tuberculosis growth (absorbance);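 0% = vehicle and 100% = reference antibiotic; read after six days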
* hit, by the source's call; ? = inconclusive; . = no result given. This is a random part of the collection; any-hit rate near 4%.

SMILES	Bead autofluor	Sa RN4220 lethal	ugtP null kill	PrP 5UTR inh	Mtb hypoxia inh	Mtb hypoxia inh growth	BJeLR lethal
Cc1cccc(C(=O)NCC(=O)OCc2cc(=O)n3ccsc3n2)c1	.	0.8	0	-23	0	-8	-4
N#CCCN(C(=O)COC(=O)c1ccc(CNS(=O)(=O)c2ccc(F)c(Cl)c2)cc1)c1ccc(F)cc1	2442	-6.2	-4	-8	-6	-4	-10
Cc1cccc(-n2nc3c(c2NC(=O)c2ccco2)CS(=O)C3)c1C (stereo unspecified)	3823	3.5	14	-84	12	7	-9
O=C(N/N=C/c1c(Cl)nc2ccccn2c1=O)c1cccnc1	4101	.	.	-1	.	.	11
COC(=O)[C@@]1(Cc2ccc(F)cc2)C2c3cc(C(=O)N4CCCC4)n(CCO)c3CC2CN1C(=O)c1ccccc1 (stereo partly specified)	.	3.9	0	.	4	0	.
C/C(NCc1ccccc1)=C(\C#N)C(=O)NCc1ccccc1	2934	.	.	-15	.	.	4
Cc1c(NC(=O)c2nn(CC(C)C)c(=O)c3ccccc23)c(=O)n(-c2ccccc2)n1C	.	2.2	11	-9	3	2	.
O=C(Cc1ccc(Cl)cc1)NC1CC1	2765	2.0	2	-23	5	6	2
O=C(COC(=O)/C=C/c1ccc(F)cc1)NC1CC1	6324	1.7	12	-18	10	5	.
O=S(=O)(NCc1ccccn1)c1ccccn1	3903	9.9	1	-15	16	1	13
Cc1ccccc1N1CC(C(=O)Nc2nnc(SCC(=O)Nc3nccs3)s2)CC1=O (stereo unspecified)	2681	11	-11	-5	-7	11	4
O=C(NCc1cccc(Br)c1)C1CC(c2ccccc2C(F)(F)F)=NO1 (stereo unspecified)	4300	5.8	7	-14	5	8	-2
COc1ccc2nc(SCC(=O)Nc3ccc(S(=O)(=O)Nc4onc(C)c4C)cc3)[nH]c2c1	2130	0.8	11	-5	.	.	0
Nc1ccccc1-c1nnc(SCc2ccccc2F)[nH]c1=O	3255	-2.3	3	-19	-7	-4	1
O=C(CN(Cc1ccccc1)C(=O)CNS(=O)(=O)c1ccc(F)cc1)NCc1ccco1	4250	-2.1	-1	-16	3	3	-7
O=C1CCC(=O)N1c1ccccc1-c1ccccc1	2986	-13	-4	-2	19	8	-1
NC1=NC(c2ccc(Cl)cc2)C(C(=O)c2ccccc2)N1 (stereo unspecified)	4053	1.6	12	-3	8	-2	5
Cc1ccc(Nc2nc(N)nc(CN3CCN(Cc4ccc5c(c4)OCO5)CC3)n2)cc1	3880	-0.2	2	-17	.	.	-7
Nc1cc(-c2ccc(Br)cc2)nn1Cc1ccccc1	4404	-14	10	-20	5	14	15
CC(C)C1N(S(=O)(=O)c2ccccc2)CCN1S(=O)(=O)c1ccccc1	5713	9.0	-4	-35	2	0	-10
COc1ccc(-n2cc(C(=O)Nc3cc([N+](=O)[O-])ccc3OC)c3ccccc3c2=O)cc1	2353	0.4	-3	-33	6	4	-19
CC[C@]12c3[nH]c4cc(CCC(=O)N(C)C)ccc4c3CCN1C(=O)[C@@H](CC(=O)NCCN1CCOCC1)C[C@@H]2C(=O)N1CCN(C(=O)c2ccco2)CC1	3434	6.9	17	-34	4	1	.
Cc1ccc(CCC(=O)Nc2ccccc2C(=O)O)o1	5507	-1.1	-3	-17	2	8	-16
O=C(NCC(c1ccco1)N1CCCC1)c1cc(=O)[nH]c2ccccc12 (stereo unspecified)	7791	4.7	3	-1	1	-3	.
O=C(c1cccc(S(=O)(=O)N2CCOCC2)c1)N1CCCc2ccccc21	6155	6.3	-8	6	1	10	-3
S=c1[nH]nc([C@@H]2C[C@H]2c2ccccc2)n1-c1ccccc1Cl	3615	5.8	16	-6	-1	-2	-3
COc1ccccc1C(c1nnnn1C(C)(C)C)N1CCCc2ccccc21 (stereo unspecified)	2460	-7.7	-4	5	1	3	-7
CCCCC(NC(=O)c1ccccc1)C(=O)OCC(=O)N1c2ccccc2Sc2ccccc21 (stereo unspecified)	3744	-4.9	-3	-14	-9	6	4
COc1ccccc1C(=O)N1CCN(c2cccc(Cl)c2)CC1	4305	-10	8	13	.	.	48
O=C(CN1C(=O)COc2ccc(S(=O)(=O)N3CCOCC3)cc21)Nc1cccc(Cl)c1	6178	2.0	8	-18	8	-8	-3
N#Cc1ccc(OCC(=O)NCCc2ccc(S(N)(=O)=O)cc2)cc1	3630	-16	-6	0	9	3	0
COc1ccc(N2CCN(S(=O)(=O)c3c(C)[nH]c(C)c3C(=O)N3CCCCC3)CC2)cc1	5622	0.9	10	7	11	2	-3
Cc1ccc(C(C)(C)NC(=O)C2CCC(=O)N(CC3CCCCC3)C2)cc1 (stereo unspecified)	5292	3.6	5	-18	7	4	1
CCC(C)NC(=O)CN1C(=O)NC2(CCOc3ccccc32)C1=O (stereo unspecified)	4969	0.8	1	-18	0	-10	6
COC(=O)C1(CCSC)NC(c2ccc(O)cc2)C2C(=O)N(c3ccc4c(c3)OCCO4)C(=O)C21 (stereo unspecified)	4810	3.4	6	-26	6	3	-4
COc1ccc(C2CC=C(C(=O)O)C(c3ccccc3F)N2S(=O)(=O)c2ccccc2C)cc1 (stereo unspecified)	.	17	-12	.	9	3	.
CC(C)CN(C(=O)COC(=O)CNC(=O)c1sc2ccccc2c1Cl)C1CCS(=O)(=O)C1 (stereo unspecified)	6173	4.8	-1	-17	6	6	-1
O=C1CC(C(=O)Nc2ccccc2)S/C(=N\NC(=O)c2ccccc2Cl)N1 (stereo unspecified)	3460	2.5	15	-14	12	5	0
FC(F)(F)Sc1ccc(NC(=S)NCc2ccccc2)cc1	3504	52	53	-8	-12	14	-3
CCOc1ccc(NC(=O)CN(C)Cc2ccc3c(c2)OCO3)cc1S(=O)(=O)N1CCCC1	3622	-0.6	1	-11	9	3	.
FC(F)Oc1ccc(-c2csc(Cc3nnc4n3CCCCC4)n2)cc1	2839	-11	-4	-21	10	9	2
Cc1cc(=O)[nH]c(N/N=C/c2ccc(Cl)c([N+](=O)[O-])c2)n1	4749	.	.	-18	.	.	-8
Cc1nc(NS(=O)(=O)c2cccc([N+](=O)[O-])c2)sc1C(C)(C)C	4347	13	9	-10	5	-3	-6
CCOc1cc(CN2CCCC(N3CCN(c4ccc(F)cc4)CC3)C2)ccc1OC (stereo unspecified)	4233	-4.2	-2	-2	2	13	-3
COc1ccc(NC(=O)C2CCN(C(=O)c3cccs3)CC2)cc1OC	4548	4.5	-1	-20	.	.	-8
CC(=O)c1c(C)[nH]c(C(=O)Nc2ccc(C)c(S(=O)(=O)Nc3ccc(C)cc3C)c2)c1C	4282	-0.1	-14	-10	1	-2	-7
COCCNC(=O)c1ccc(S(=O)(=O)N2CCCc3ccccc32)cc1	5922	7.0	3	-18	10	2	0
O=C(c1cc(Cl)cc(Cl)c1)N1CCN(c2cc(C(F)(F)F)nc3ccccc23)CC1	6319	-0.6	-11	-12	0	0	7
COc1cc(C=NNC(=O)COc2ccc(C)cc2)ccc1OC(=O)c1cccs1	.	9.5	6	.	2	0	.
Cc1ccccc1NC(=O)c1cccnc1	3631	2.2	2	-8	0	0	-2
S=C(NCCc1ccccc1)NN=Cc1ccc(Cl)cc1	.	5.4	-25	.	-7	2	.
CCCn1c(SCC(=O)Nc2ccc(Cl)cn2)nnc1C1CC1	5814	5.0	0	-13	8	5	-9
CC(=O)Nc1c2c(nn1-c1ccc(F)cc1)CSC2	5786	0.0	0	-24	5	7	-7
CC1=NN(c2ccccc2)C(=O)/C1=C\c1cn(C)c2ccccc12	3095	-1.3	5	-27	1	-2	-1
COc1ccc(/C=C/C(=O)N(C)C2CCS(=O)(=O)C2)cc1 (stereo unspecified)	5084	2.4	1	-20	8	6	1
S=P(c1ccc(N2CCOCC2)cc1N1CCOCC1)(N1CCOCC1)N1CCOCC1	3190	18	4	-18	-4	2	.
C#CCOCCOCCOCCNc1nc(N2CCN(C(=O)C(CCCCN)n3cc(C(N)C(C)CC)nn3)CC2)nc(N2CCN(C(=O)C(Cc3cc4ccccc4[nH]3)n3cc(C(N)C(C)CC)nn3)CC2)n1 (stereo unspecified)	.	0.2	-11	.	8	23	.
COc1ccccc1N/N=C1\COC(C)(C)CC1=O	3436	.	.	-27	.	.	5
N#Cc1c(SCC(=O)O)nc(N2CCOCC2)c2c1CCCC2	4007	1.3	7	-14	2	3	9
CC(=O)NC(Cc1ccccc1C)C(=O)NC1CCN(C(=O)c2ccc(C)cc2)CC1 (stereo unspecified)	4176	-0.7	6	-14	4	5	0

(list continues)
SMILES	Bead autofluor	Sa RN4220 lethal	ugtP null kill	PrP 5UTR inh	Mtb hypoxia inh	Mtb hypoxia inh growth	BJeLR lethal
CC1CC(=O)c2cnc(NCC3CCCO3)nc2C1 (stereo unspecified)	3495	-1.4	-1	3	.	.	4
O=C(NCC(c1cccs1)N1CCOCC1)c1cn(-c2ccccc2)nc1-c1ccc(F)cc1 (stereo unspecified)	6911	2.1	0	-26	8	-5	1
CCc1noc(C)c1C(=O)OCC(=O)Nc1ccccc1SC	5660	6.6	6	-28	-1	-1	.
COc1cccc(N2C(=O)C(CC(=O)Nc3ccc(F)cc3)N(C3CCCCC3)C2=O)c1 (stereo unspecified)	2773	3.9	1	2	.	.	-1
O=C(Nc1nnc(-c2ccccc2)o1)NC1CCCCC1	4270	3.4	17	78*	4	4	2
CCCCCn1ccc(=O)c2c(C(F)(F)F)nccc21	9069	0.1	3	-11	7	12	1
CN(C)c1ncnc2c1ncn2C1OC(CO)C(O)C1O (stereo unspecified)	2441	.	.	-2	.	.	3
Cc1ccc(CCNC(=O)C2CCN(C(=O)c3sccc3-n3cccc3)CC2)cc1	3251	-2.3	-8	-21	-4	-4	10
CSc1ccccc1C(=O)NC1CC2CCC1C2 (stereo unspecified)	4905	3.2	2	7	.	.	-4
COc1ccc2[nH]c(=O)c(CNc3ccccc3C)cc2c1	4688	3.5	-7	-60	-13	2	4
CC(=O)c1c(C)[nH]c(C(=O)OCC(=O)Nc2ccc(Cl)cc2[N+](=O)[O-])c1C	9819	22	21	-4	-1	2	12
COc1cccc(C(=O)/C=C/Nc2ccc(S(=O)(=O)Nc3ccc(C(C)=O)cc3)cc2)c1	2627	22	0	-32	-16	-7	-3
CCn1cc(-c2cc(C(=O)O)on2)c(C)n1	4485	0.8	4	-26	1	6	0
CC(=O)c1cc(C(=O)N2CCCC(CCC(=O)N(C)CCc3ccccn3)C2)cs1 (stereo unspecified)	4026	12	6	-11	3	2	2
CCOC(=O)COc1ccc(Cl)cc1C1NC(=O)NC(C)=C1C(C)=O (stereo unspecified)	2140	6.3	5	-8	.	.	-3
CCCOc1ccc(C(=O)OCC(=O)NCCc2ccc(OCC)c(OCC)c2)cc1OC	?	1.3	3	-1	0	6	6
COc1cc(C(=O)NC(C)C2CC3CCC2C3)ccc1OC(F)F (stereo unspecified)	4269	-5.0	11	-31	7	5	.
COc1cccc(C=NNC(=O)C(=O)NCc2cccnc2)c1OC	.	4.0	10	.	1	6	.
CC(C)CNC(=O)c1cccc(NC(=O)CSc2ccccc2)c1	2140	.	.	0	.	.	-3
